Menin MLL FP FL – inhibitors of human menin-MLL interaction, wild-type MLL peptide. Fluorescence polarization, fluorescein-MLL peptide displacement from menin. FP activity change, % at 61.4 µM. 290,000 tested, under 10 active; inconclusive = falling polarisation curve, or a change in total fluorescence; inactive = total fluorescence flat and polarisation flat or rising; no compound was filed as active; the % refers to the polarisation; negative = inhibition;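 further: % of control where 0% means no effect; inhibitors lower the polarisation; unlabelled MLL peptide was the positive control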
D2 agonist – agonists of human D2 dopamine receptor (beta-arrestin); P14416; 360,000 compounds, 0.084% hits; activation, % (test concentration not listed); AID 624465; DiscoveRx PathHunter D2 beta-arrestin, luminescence, 90 min; 100% = 57 uM dopamine signal; in the data active = activation above about 40%; inconclusive = about 15% to 40%; inactive = below about 15%; further: compound concentration not given in the record; the text of the record calls up to 30% inactive
Target sequence (P14416 whole entry, looked up): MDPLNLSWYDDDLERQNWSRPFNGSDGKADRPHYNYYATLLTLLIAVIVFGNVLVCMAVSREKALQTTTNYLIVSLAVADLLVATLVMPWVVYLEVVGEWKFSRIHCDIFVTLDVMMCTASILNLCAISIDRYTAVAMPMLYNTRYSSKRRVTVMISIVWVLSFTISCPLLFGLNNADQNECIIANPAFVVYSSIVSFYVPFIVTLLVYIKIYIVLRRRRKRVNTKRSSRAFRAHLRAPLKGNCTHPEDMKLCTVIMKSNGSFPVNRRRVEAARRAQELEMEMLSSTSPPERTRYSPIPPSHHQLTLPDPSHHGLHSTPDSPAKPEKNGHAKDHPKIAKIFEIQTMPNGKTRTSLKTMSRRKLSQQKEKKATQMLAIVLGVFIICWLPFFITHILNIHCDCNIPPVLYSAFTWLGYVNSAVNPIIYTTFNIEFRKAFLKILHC
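Agonist mode: compounds alone added to overnight-plated D2 PathHunter cells for 90 min at 37 C, with 57 uM final dopamine (EC100) defining full response. Beta-arrestin recruitment detected by chemiluminescent reagent, read after 1 h at ambient temperature.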
gsp agonist – activates gsp, the McCune-Albright syndrome mutation; gsp mutant cells, cAMP HTRF, 30 min; control for the full effect not named in the record; Potency, µM (top dose mostly 76.9 µM), inactives show top-dose activation (cAMP increase), actives largely listed as activators; 340,000 compounds, 0.13% hits; active = well fitted activation curve with a large enough effect; inconclusive = small, poorly fitted or top-dose-only effect, or another doubt; inactive = no such curve, though single readings can be large or run the other way; cell line not stated here;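 further: phosphodiesterase inhibitor Ro 20-1724 added with compounds to block cAMP breakdown; potency means the concentration at half of the fitted maximal effect; nearly all actives have a fitted effect of over 60% in size; about a fifth of the inactives were tested at one dose only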
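Cells in DMEM/10% FBS with G418 were pretreated with compounds in DMSO plus […] (300 uM stock) for 30 min at 37C. cAMP was measured by HTRF (cAMP-d2 plus anti-cAMP antibody-K) after 30 min at room temperature.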
ClpP mod – qHTS Assay for Activators of ClpP; ATP-dependent Clp protease proteolytic subunit (Bacillus subtilis (strain 168)), P80244; 340,000 compounds, 1.9% hits; purified B. subtilis ClpP, FRET peptide cleavage, 20 min; Potency, µM (doses to about 57.5 µM), for the others: at the top dose activity change, negative = active; AID 651965, 2013; active = well fitted falling curve with a large enough effect; inconclusive = small, poorly fitted or top-dose-only effect; inactive = no such curve, though single readings can be large or run the other way; further: potency means the concentration at half of the fitted maximal effect; the source files actives as falling curves though it sought activators and does not explain the sign; nearly all actives have a fitted effect of over 65% in size; many hits overshoot -100%
Target sequence (P80244 whole entry, looked up): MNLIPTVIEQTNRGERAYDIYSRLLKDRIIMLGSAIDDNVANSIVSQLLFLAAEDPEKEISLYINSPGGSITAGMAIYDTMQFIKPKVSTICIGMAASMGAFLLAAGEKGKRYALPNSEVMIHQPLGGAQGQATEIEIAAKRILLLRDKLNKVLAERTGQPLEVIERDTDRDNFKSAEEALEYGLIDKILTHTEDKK
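Buffer: 100 mM Tris/HCl pH8, 100 mM KCl, 0.05% low protease BSA, 2.5% glycerol, 0.01% Tween-20. ClpP 10 microg/mL final; 20 min RT; delta FRET normalized to ADEP and DMSO controls.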
gsp antag – gsp mutant antagonism | Potency, µM (highest dose often 76.9 µM), without a hit: at the highest dose activity change, negative = inhibition, most hits filed as inhibitors | AID 624288 | gsp-mutant cells, cAMP HTRF, 30 min; control for the full effect not named in the record | 340,000 compounds, 0.4% hits; active = falling curve of any shape with a large fitted effect; inconclusive = falling curve, mostly with a smaller effect; inactive = flat or rising curve; cell line not stated here;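 further: intracellular cAMP measured with PDE inhibitor Ro 20-1724 present during compound exposure; potency means the concentration at half of the fitted maximal effect; on the % scale 0 is the no-effect control and ±100 the full control effect; nearly all actives have a fitted effect of over 65% in size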
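HTRF cAMP measurement after 30 min RT detection following 30 min, 37C compound treatment alongside […] (added as 300 uM solution) in G418-selected cells seeded at 2000/well and grown 16–24 h.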
Sfp PPTase inh – Sfp phosphopantetheinyl transferase inhibition | Potency, µM, inactives show max response, negative = inhibition, actives largely listed as inhibitors | Q9F4F7 | AID 1490 | Biochemical Sfp PPTase activity, qHTS | 310,000 compounds, 3.5% hits; active means well fitted inhibition curve with a large enough effect; inconclusive means small, poorly fitted or top-dose-only effect, or another doubt; inactive means no such curve, though single readings can be large or run the other way;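 further: the enzyme is Sfp with the accession as filed and its product quenches rhodamine fluorescence; potency means the concentration at half of the fitted maximal effect; 0% = enzyme reaction without inhibitor and -100% = no enzyme wells; top concentration of the series not given in the record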
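Fluorescence-quenching assay: 15 nM Sfp-PPTase preincubated 15 min at room temperature with compound, then 5 uM rhodamine-CoA and 12.5 uM BHQ-2-labelled YbbR peptide added. Fluorescence (ex 525/em 598 nm) read at start and after 30 min; difference gives rate.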
PINK1 expr mod – modulators of PINK1 expression; PINK1 immunofluorescence, high-content cytometry, 24 h; AID 624263; Potency, µM (titrated, usually from 76.6 µM), inactives show at the highest dose activation (PINK1 increase), hits mostly activators; 410,000 compounds, 0.2% hits; active = well fitted activation curve with a large enough effect; inconclusive = small, poorly fitted or top-dose-only effect; inactive = flat fitted curve, though single readings scatter; cell line not stated here;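 further: potency means the concentration at half of the fitted maximal effect; % of control where 0% means no effect; nearly all actives have a fitted effect of over 65% in size; a mitochondrial uncoupler was the plate control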
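PINK1 protein level read as immunofluorescence by microplate cytometer in a fixed, stained stable cell line after 24 h exposure to five compound concentrations, with CCCP as control.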
The depositor's hits bear a star; ? = inconclusive; . = no result given; [ ] = another dose, or the depositor's remark.

SMILES	Menin MLL FP FL	D2 agonist	gsp agonist	ClpP mod	gsp antag	Sfp PPTase inh	PINK1 expr mod
Cc1ccccc1CC(=O)Nc1cccc(S(=O)(=O)N2CCCC2)c1	.	3.1	11%	0.0%	1%	.	1.4%
O=C(CN1C(=O)C2CC=CCC2C1=O)Nc1ccc(S(=O)(=O)Nc2ncccn2)cc1 (stereo unspecified)	2.1	-4.5	-4%	-4.2%	-2%	17%	0.2%
Cc1nc(C)n(CC(=O)c2ccc(Cl)cc2Cl)n1	4.0	-2.8	-16%[15.4 µM]	-3.7%	6%	20%	3.6%
N/C(=N\OC(=O)c1cc(-c2ccccc2)nc2ccccc12)c1ccccn1	-1.7	48*	-55%[inhibitor]	-24%	-34%	-4%	2.2%
CCCc1nnc(SCC(=O)Nc2ccc3c(c2)OCCO3)n1CCOC	-2.8	-1.0	15%[15.4 µM]	.	.	9%	-0.3%
CCOC(=O)N1CCN(c2nnc(-c3ccc(C)cc3)c3ccccc23)CC1	-7.7	-0.1	-23%	.	-22%	-8%	1.0%
C[C@@H]1CCCCO[C@@H](CN(C)S(=O)(=O)c2cccs2)[C@@H](C)CN([C@H](C)CO)C(=O)c2cc(NS(=O)(=O)c3ccccc3)ccc2O1	.	-5.6	?	-5.4%	.	.	1.6%
CCOC(=O)c1sc(NC(=O)CN2C(=O)NC3(CC(C)CC(C)(C)C3)C2=O)c(C(=O)OCC)c1C (stereo unspecified)	0.3	-2.6	-15%	-7.6%	-17%	17%	7.9%
CNC(=O)/C(C#N)=c1\s/c(=C/C(=O)OC)c(=O)n1-c1ccccc1	8.3	3.0	35%	-0.8%	15%	8%	2.3%
O=C(COC(=O)c1ccc(O)cc1)NCc1ccc2c(c1)OCO2	-3.7	5.8	28%	.	-1%	13%	-2.9%
O=C(O)CCCn1cc(NC(=O)COc2ccc(F)cc2F)cn1	-7.3	-3.0	-63%[inhibitor]	1.9%	-11%	14%	-0.2%
CC(C)(C)OC(=O)C[C@H]1C/C=C\C[C@H](CC(=O)N(CCO)Cc2ccccc2)C(=O)NCCOC1=O	.	-4.6	-2%	-0.9%	13%	.	-0.4%
CN1c2ccccc2C(O)=C(C(=O)Nc2ccccc2)S1(=O)=O	?	0.4	13%	3.2%	-1%	-24%	0.7%
CCN(CC)S(=O)(=O)c1ccc(N2CCOCC2)c(NC(=O)CC23CC4CC(CC(Br)(C4)C2)C3)c1	0.4	-3.8	19%	-4.7%	-6%	0%	1.4%
Cc1ccc(NC(=O)CN2C(=O)COc3ccc(S(=O)(=O)N4CCCC4)cc32)c(C)c1	2.3	-0.6	-12%	2.3%	1%	6%	3.8%
Cc1cc(N2CCCCCC2)n2nc(C)c(-c3ccccc3)c2n1	-8.8	2.1	?	3.0%	-11%	-8%	?
Cc1ccc(SCCNC(=O)C(CO)(CO)CO)cc1	5.2	-0.5	1%	-1.1%	8%	12%	4.2%[38.3 µM]
CCOc1ccc2nc(N3CCCN(C(=O)Nc4ccccc4C)CC3)c(C#N)cc2c1	?	0.9	7%	-2.2%	-29%	4%	3.1%
O=c1nc(Nc2ccc([N+](=O)[O-])cc2)[nH]c(=O)[nH]1	-5.3	0.8	-10%[15.4 µM]	.	14%	19%	-2.1%
CC(=O)c1ccc(OCCCC(=O)NC2CCC(C)CC2)cc1 (stereo unspecified)	0.3	-3.1	-6%[15.4 µM]	.	2%	21%	0.6%
Cc1ccc(Nc2ncnc3c2oc2ccccc23)cc1	2.2	-3.2	0%	8.8%	4%	-2%	-0.6%
COc1ccc(NC(=O)c2cc(-c3ccc(C)o3)nc3ccccc23)c(OC)c1	.	1.3	-9%	-9.2%	?	.	4.8%
Cc1cccc(C)c1NCc1n[nH]c(=S)n1-c1ccccc1	0.2	3.8	-8%[15.4 µM]	0.7%	9%	79µM*	0.3%
O=C1C=C(c2ccc3[nH]ccc3c2)C[C@@H](c2ccc(Cl)cc2)C1	.	1.5	?	-1.0%	-26%	.	?
COc1ccccc1C(=O)NNC(=S)NC(=O)c1cc(OC)c(OC)c(OC)c1	-1.4	-4.1	29%	-1.9%	4%	21%	1.9%
O=C(COC(=O)CSc1nnc(-c2ccc(Cl)cc2)o1)NCc1ccc2c(c1)OCO2	-2.7	-3.8	-21%	1.8%	-9%	4%	2.0%
CC1CCN(C(=S)c2ccc3c(c2)OCO3)CC1	0.6	-0.3	6%	-0.4%	-11%	-3%	?
CC(=O)N[C@@H](CC(=O)N[C@H](CCC(=O)O)C(=O)O)C(=O)O	.	3.4	.	1.0%	5%	.	0.9%
Cc1cc(C#N)c(C)c(SCc2[nH]nc3c2C(c2ccccc2)C(C#N)=C(N)O3)n1 (stereo unspecified)	1.3	-2.5	-30%	2.4%	-16%	?	.
Cc1cccc(N(Cc2ccccc2)C(=O)CCl)c1	0.4	-7.0	2%[15.4 µM]	.	.	5%	-0.7%
Cc1cccc(N2CC(C)Cn3c2nc2c3c(=O)n(CC(=O)OCc3ccccc3)c(=O)n2C)c1 (stereo unspecified)	-0.2	-2.8	16%	?	-23%	-6%	-1.3%
Cc1nc2ccccc2n1C(=O)c1ccc(Cl)cc1[N+](=O)[O-]	1.5	11	-6%[15.4 µM]	-0.7%	12%	9%	1.2%
COc1ccc(CN2C[C@@H](CO)O[C@@H](n3cnc4c(N5CCN(CCO)CC5)ncnc43)C2)cc1	.	-0.3	.	1.1%	.	.	3.2%
CN1CCc2ccccc2CC1=O	3.2	-4.4	-58%[inhibitor]	-4.9%	6%	21%	2.0%
CCNC(=O)C1(C)CCCN1C(=O)c1cc(OC)c(OC)c(OC)c1 (stereo unspecified)	.	-6.9	.	0.2%	.	.	0.7%
CCS(=O)(=O)c1ccc2oc(SCC(=O)NCCC3=CCCCC3)nc2c1	1.2	-1.0	?	-2.4%	-6%	8%	1.2%
CCOC(=O)C1CCN(C(=O)c2cc3ccc(OC)cc3[nH]2)CC1	0.2	-3.5	-14%[15.4 µM]	0.4%	-7%	-2%	4.4%
Cc1cc(S(=O)(=O)N2CCOCC2)ccc1NC(=O)c1ccc(F)cc1	-1.2	0.6	-53%[15.4 µM]	-1.3%	11%	8%	-0.3%
CCOC(=O)C(N)CSC1CC(=O)N(CCc2ccccc2)C1=O (stereo unspecified)	-2.2	-5.7	22%	-4.3%	4%	-24%	2.1%
CCCCCOc1ccc(/C(C)=N/NC2=NCCN2)cc1	-3.5	-3.3	12%	1.8%	13%	-7%	-1.8%
N=c1nc(SCCC(=O)O)ss1	2.3	-5.7	10%	-7.4%	6%	?	-1.8%
Cc1ccc2cc(CN(CC(C)C)S(=O)(=O)c3cccc4nonc34)c(=O)[nH]c2c1	.	-10	?	-6.2%	11%	20%	4.5%
CCN1C[C@@H]2[C@@H]3C(=O)N(Cc4ccccc4)C(=O)[C@@H]3[C@](CC)(C(=O)OC)N2C1=NC1CCCCC1	.	-1.5	.	0.1%	10%	.	-0.5%
Cc1ccc(NC(=O)COC(=O)c2ccccc2Cl)cc1S(=O)(=O)N(C)C	-5.1	2.3	-4%[15.4 µM]	0.2%	-3%	6%	-0.5%
CC(C)N(C)c1ncnc2c1ncn2[C@H]1CN(Cc2ccc(Cl)cc2)C[C@@H](CO)O1	.	-2.9	.	0.9%	.	.	2.4%
COc1ccc(-c2ocnc2C(=O)Nc2ccc3c(c2)CCC3)cc1	-2.8	0.6	-3%	.	-14%	14%	2.5%
CCCOc1ccc(N2C(=O)CC(SC(=NC)Nc3ccc(F)cc3)C2=O)cc1 (stereo unspecified)	2.2	0.6	5%	0.4%	15%	0%	7.7%
CSCCC(NC(=O)C1CCC(C)CC1)C(=O)NCCN1CCOCC1 (stereo unspecified)	2.0	-1.0	-3%	1.1%	-4%	7%	4.3%[38.3 µM]
CCCNC(=O)c1csc2c1CCCCC2	-1.0	-0.4	-21%	1.1%	3%	6%	3.0%
Cc1occc1C(=O)N/N=C/c1sc(N2CCOCC2)nc1-c1ccccc1	6.8	-7.7	13%	-3.4%	2%	3%	1.3%

(next part)
SMILES	Menin MLL FP FL	D2 agonist	gsp agonist	ClpP mod	gsp antag	Sfp PPTase inh	PINK1 expr mod
Cc1ccccc1OCC(=O)NNC(=O)Nc1ccccc1	-2.6	-2.3	-30%	-1.4%	9%	6%	-0.3%
O=S(=O)(Nc1ccc(N2CCCCC2)cc1)c1cccc2cccnc12	-1.5	-1.8	-14%	-0.7%	19%	-1%	-0.8%
C/C(=N\NC(=O)c1c(Br)c(C)nn1C)c1cccc(NC(=O)C2CCC2)c1	2.0	-3.2	5%	?	-7%	17%	1.2%
O=C(N/N=C/c1cccc([N+](=O)[O-])c1)c1ccc2nc[nH]c2c1	8.1	-3.8	24%	0.8%	6%	-12%	-1.0%
CCCCCC(=O)N/N=C/c1ccco1	4.5	-1.4	-90%[inhibitor]	-0.1%	4%	1%	-0.5%
Cc1nc2cc(-c3ccc(Cl)cc3)nn2c(C)c1CCC(=O)NCc1ccco1	2.8	-3.4	-3%	-17%	-9%	10%	-1.7%
CCOC(=O)c1cncc(C#CCO)c1	3.3	-3.1	-4%[15.4 µM]	.	-2%	3%	1.1%
Cc1ccc2c(c1)sc(=NC(=O)C1CC1)n2C	-15	-2.5	0%	-5.4%	-6%	-11%	0.5%
CSc1ccc(CNC(=O)C2CCC(=O)N(CCc3cccc(F)c3)C2)cc1 (stereo unspecified)	0.0	-6.2	?	0.2%	12%	14%	1.6%
CC(=O)N1CCC(N(CCN2CCOCC2)C(=S)Nc2cccc(C)c2C)CC1	-7.4	-3.3	15%	-1.5%	5%	9%	-1.9%
CCOC(=O)C1CCCN(C(=O)c2cc(-c3ccc(F)cc3)nc3ccccc23)C1 (stereo unspecified)	-4.3	-1.1	13%	.	-31%	4%	-1.4%
CNc1csc(C)c(C)c1=O	3.3	-1.5	-64%[inhibitor]	0.5%	-1%	-27%	0.8%[38.3 µM]

Compound activity: PubChem, National Center for Advancing Translational Sciences (NCATS)
